Source: PubChem BioAssay (several laboratories)
Bead autofluor: counter-screen for toxin protease inhibitors: compound fluorescence; compound autofluorescence counterscreen, microsphere flow cytometry; stronger effect = higher value; fluorescence intensity (no concentration beside the values); 360,000 tested, 3.1% active;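 active means at least 3 SD above the mean of all compounds, about 16000 in these data; inconclusive means too few beads counted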;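 further: 100 nL of 1 mM stock went into each well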
RN4220 kill: kills Staphylococcus aureus RN4220 | S. aureus RN4220 growth, OD600, 16 h | inhibition, % (concentration not given with the values) | 330,000 tested, 0.33% active | AID 1259311;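 active means z-score of -3 or lower and OD600 up to 0.18 on both plates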;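 further: plate controls were untreated cells for no effect and reference antibiotic for full effect; stock transfer was 100 nL into about 80 µL; one replicate is shown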
BJeLR viability: kills HRASV12-expressing BJeLR cells. BJeLR (HRASV12) viability, CellTiter-Glo ATP luminescence, 48 h; reference of the scale not given here. inhibition, % (test concentration not listed). 300,000 tested, 0.17% active;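 active means replicate mean above 50%; inconclusive means above 50% but judged a plate artefact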;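 further: 50 nL library stock added to about 25 µL; numbers are from one replicate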
ugtP null kill: compounds lethal to S. aureus RN4220 ugtP deletion mutant; growth inhibition, % (no concentration beside the values); 330,000 tested, 0.54% active; OD600 growth, 16 h; some inactives read as strong as hits; AID 1259309;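 active means z-score under -3 and OD600 up to 0.15 on both plates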;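 further: plate controls were untreated wells for no effect and antibiotic for full effect; wells of about 80 µL received 100 nL stock; the first replicate is given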
PrP UTR inh: inhibition of PrP 5' UTR reporter expression | cell-based PrP 5' UTR mRNA reporter, plate reader | inhibition, % (no concentration beside the values) | 340,000 tested, 0.35% active | AID 488862;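 active means every replicate at 50% or more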;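 further: 0 = median of the neutral control wells; tested in H4 reporter cells; numbers are from one replicate; inactives centre near -14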
Mtb hypoxia inh: inhibitors of hypoxia-regulated fluorescent reporter in Mycobacterium tuberculosis. M. tuberculosis hypoxia-regulated fluorescent reporter, fluorescence. fluorescence inhibition, % (no concentration beside the values). 300,000 tested, 0.1% active. AID 1159583;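 active means 35 to 45% if threefold the growth effect, above 45% if 1.5-fold the growth effect; inactive means the rest, general growth blockers included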;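 further: wells of about 50 µL received 100 nL stock; 0% = vehicle wells and 100% = reference inhibitor wells; whole bacteria with a GFP reporter of the hypoxia response; strong numbers were not always called active; many hits fall short of the cut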
Mtb hypoxia inh growth: recorded beside Mtb hypoxia inh, whose call it bears; growth inhibition, %; measured here: M. tuberculosis growth (absorbance);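 0% = vehicle and 100% = reference antibiotic; read after six days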
* hit, by the source's call; ? = inconclusive; / = no result given; & = joins results of further samples.

SMILES | Bead autofluor | RN4220 kill | BJeLR viability | ugtP null kill | PrP UTR inh | Mtb hypoxia inh | Mtb hypoxia inh growth
NC(=O)c1cc(N2C(=O)C3CC=CCC3C2=O)ccc1N1CCCCC1 (stereo not drawn) | 23233* | -6.8 | 2 | -4 | -7 | -7 | -7
CCCn1c(N2CCN(S(=O)(=O)Cc3ccccc3)CC2)nc2ccccc21 | 3719 | 3.0 | 6 | -4 | -3 | 9 | 16
CCn1c(SCC(=O)Nc2cc(Cl)ccc2OC)nnc1C1CC1 | 3494 | 2.1 | -2 | 13 | -12 | 6 | 11
CC1CCCC(C)N1CCCNC(=O)CN1C(=O)c2cccnc2Oc2ccc(Cl)cc21 (stereo not drawn) | 6248 | -0.2 | -12 | -6 | -19 | / | /
CCC(=O)N(CCC(Cc1ccccc1)c1ccco1)Cc1ccco1 (stereo not drawn) | 4217 | 5.7 | -2 | 16 | 0 | 14 | 11
Cc1ccc(NC(=O)CSC2=C(C#N)C(c3ccc4c(c3)OCO4)CC(=O)N2)cc1C (stereo not drawn) | 22137* | 2.7 | -22 | -4 | -7 | -5 | -1
CC(=O)c1c(C)[nH]c(C(=O)COC(=O)CN2C(=O)C3CCCCC3C2=O)c1C (stereo not drawn) | 8317 | -1.7 | / | -2 | -20 | -3 | 5
CCOc1ccc(NC(=O)CCn2ccnc2)cc1 | 3549 | 2.4 | -2 | 2 | -20 | 2 | 1
Cc1cc(C(=O)Nc2ccc(C(=O)O)cc2)c(-c2ccccc2)o1 | 4340 | -7.1 | 2 | 11 | -18 | / | /
O=C(N/N=C/c1cc([N+](=O)[O-])ccc1O)c1cccc2cc[nH]c12 | 3302 | / | 27 | / | 7 | / | /

Single values from the entries so far:
O=C(N/N=C/c1cc([N+](=O)[O-])ccc1O)c1cccc2cc[nH]c12 in BJeLR viability: 27
CC1CCCC(C)N1CCCNC(=O)CN1C(=O)c2cccnc2Oc2ccc(Cl)cc21 (stereo not drawn) in RN4220 kill: -0.2

Continued:
SMILES | Bead autofluor | RN4220 kill | BJeLR viability | ugtP null kill | PrP UTR inh | Mtb hypoxia inh | Mtb hypoxia inh growth
Cc1noc(NS(=O)(=O)c2ccc(NC(=O)c3nn(-c4ccccc4)ccc3=O)cc2)c1C | 5348 | / | -7 | / | -24 | / | /
CC(C)C(NC(=O)c1ccco1)C(=O)OCC(=O)N1CC(=O)Nc2ccccc21 (stereo not drawn) | 5595 | 2.9 | / | 3 | -11 | 2 | -1
CN1CCN(CCOc2ccc(Cc3ccccc3)cc2)CC1 | 3509 | 3.6 | -5 | 20 | -16 | 6 | 13
O=C(Cc1ccc(Cl)c(Cl)c1)N1CCOCC1 | 2890 | 5.4 | -1 | 7 | -21 | 14 | 13
Cc1cccc(NC(=O)CSCC(=O)Nc2sccc2C#N)c1 | 5102 | 7.5 | 3 | 2 | -1 | 8 | 0
COCCn1c(C2CCCCC2)nc2sc3ccccc3c(=O)c2c1=O | 22628* | 0.1 | 2 | -13 | -15 | -3 | 7
COc1ccc(-c2oc3ccc(-c4ccc5c(c4)OCO5)cc3c2C#CC2(O)CCCCC2)cc1 | 3799 | 12 | 3 | -1 | -7 | 3 | 10
CC(C)(C)NC(=O)CN(C(=O)CS(=O)CC(=O)Nc1ccc(F)cc1)c1ccccc1F (stereo not drawn) | 4501 | 0.2 | -4 | 8 | -10 | 9 | 12
COc1ccccc1NC(=O)C(C)OC(=O)COc1cccc2c1OC(C)(C)C2 (stereo not drawn) | ? | 5.4 | -6 | 5 | -7 | 4 | 3
Cc1ccc(NC(=O)CCCCCCCCCCC2COCCO2)c(C)c1 (stereo not drawn) | 2464 | -0.7 | -9 | 6 | -57 | 7 | 1
CC1=NNC(=O)C1CCC(=O)NN=Cc1ccc(Cl)c(Cl)c1 (stereo not drawn) | / | 0.6 | / | 4 | / | -17 | -8
Cn1nc(-c2ccccc2)cc1NC(=O)Nc1ccc(C(C)(C)C)cc1 | 6171 | -11 | 0 | -31 | -11 | 1 | -5
Cc1c(C)c2ccc(OCC(=O)N3CCN(Cc4ccccc4)CC3)cc2oc1=O | 4339 | 2.7 | / | 6 | -19 | -2 | -1
Nc1ccc(S(=O)(=O)N2CCc3ccccc32)cc1 | 3241 | 2.0 | 3 | 8 | -29 | 3 | 12
CCN(CC)c1ccc(C(=O)Nc2cccc(F)c2)cc1 | 2946 | 11 | -2 | -10 | -75 | 0 | 1
Oc1ccc(C2NCc3ccccc3-n3cccc32)cc1Cl (stereo not drawn) | 4928&4386 | 9.7&11 | -5&-6 | 16&38 | -15&-10 | 7 | -3
Cc1ccc(NC(=O)CN(C)C(=O)COC(=O)c2ccc(Cl)cc2O)cc1 | 9224 | -2.1 | / | -9 | -10 | -4 | 7
CC(C)[C@H](NS(=O)(=O)c1ccc2c(c1)OCCO2)C(=O)OCC(=O)Nc1ccccc1 | 10166 | 2.5 | 4 | 6 | -11 | 6 | 2
Cc1ccc(S(=O)(=O)N2CCN(c3ccc(C(F)(F)F)cc3[N+](=O)[O-])CC2)cc1 | 2158 | 6.6 | -14 | 14 | -17 | 13 | 6
Cc1ccc(Cn2c(SCC(=O)NCC3CCCO3)nc3c(sc4ccccc43)c2=O)cc1 (stereo not drawn) | 5104 | 6.6 | -2 | -6 | -24 | 4 | 7
Cc1ccccc1Cn1nc(C)c(NC(=O)c2noc3c2CCCC3)c1C | 8192 | 0.4 | -11 | 0 | -1 | 5 | -3
O=C(NCc1cccnc1)C(=O)NCC1OCCN1S(=O)(=O)c1ccc(Cl)cc1 (stereo not drawn) | 5473 | -17 | 14 | -7 | 3 | 6 | 5
COc1ccc(C(CNC(=O)c2ccc(NS(=O)(=O)c3cccc([N+](=O)[O-])c3)cc2)N2CCOCC2)cc1 (stereo not drawn) | 5327 | 2.1 | 3 | -1 | -17 | 1 | 3
O=C(CC1=NNC(=O)C1)NN=Cc1ccccc1[N+](=O)[O-] | / | -0.8 | / | -1 | / | 3 | -2
Cc1ccc(CNC(=O)CSc2nccn(-c3ccc(C)c(F)c3)c2=O)cc1 | / | -1.8 | 7 | 0 | -12 | -3 | 3
CN(C)CCOc1cc(Cl)cc(Cl)c1 | 2230 | 2.3 | 1 | 13 | -30 | 10 | 16
CCn1c(SCC(=O)Nc2ccc3c(c2)OCCO3)nc2c(c1=O)SC(C)C2 (stereo not drawn) | 2270 | 0.9 | 5 | 3 | 17 | / | /
CCOC(=O)C1CCCN(Cc2cc(=O)oc3cc(C)c(C(C)C)cc23)C1 (stereo not drawn) | 3197 | 6.5 | 8 | -16 | -20 | 16 | 0
CCCCn1c(N)c(N(CC)C(=O)C(c2ccccc2)c2ccccc2)c(=O)[nH]c1=O | 4605 | 3.6 | -2 | -5 | -34 | 9 | -2
COc1ccc(NC(=O)CC2C(=O)N(c3ccc(F)cc3)C(=S)N2NC(=O)c2ccc(Cl)cc2)cc1 (stereo not drawn) | 1910 | 1.2 | 5 | -1 | -6 | 6 | 7

Quoted from the entries so far for reference:
SMILES | Bead autofluor | RN4220 kill | BJeLR viability | ugtP null kill | PrP UTR inh | Mtb hypoxia inh | Mtb hypoxia inh growth
CC(C)[C@H](NS(=O)(=O)c1ccc2c(c1)OCCO2)C(=O)OCC(=O)Nc1ccccc1 | 10166 | 2.5 | 4 | 6 | -11 | 6 | 2
Cc1ccc(S(=O)(=O)N2CCN(c3ccc(C(F)(F)F)cc3[N+](=O)[O-])CC2)cc1 | 2158 | 6.6 | -14 | 14 | -17 | 13 | 6
Cc1ccc(Cn2c(SCC(=O)NCC3CCCO3)nc3c(sc4ccccc43)c2=O)cc1 (stereo not drawn) | 5104 | 6.6 | -2 | -6 | -24 | 4 | 7
Cc1ccccc1Cn1nc(C)c(NC(=O)c2noc3c2CCCC3)c1C | 8192 | 0.4 | -11 | 0 | -1 | 5 | -3
O=C(NCc1cccnc1)C(=O)NCC1OCCN1S(=O)(=O)c1ccc(Cl)cc1 (stereo not drawn) | 5473 | -17 | 14 | -7 | 3 | 6 | 5
COc1ccc(C(CNC(=O)c2ccc(NS(=O)(=O)c3cccc([N+](=O)[O-])c3)cc2)N2CCOCC2)cc1 (stereo not drawn) | 5327 | 2.1 | 3 | -1 | -17 | 1 | 3
O=C(CC1=NNC(=O)C1)NN=Cc1ccccc1[N+](=O)[O-] | / | -0.8 | / | -1 | / | 3 | -2
Cc1ccc(CNC(=O)CSc2nccn(-c3ccc(C)c(F)c3)c2=O)cc1 | / | -1.8 | 7 | 0 | -12 | -3 | 3
CN(C)CCOc1cc(Cl)cc(Cl)c1 | 2230 | 2.3 | 1 | 13 | -30 | 10 | 16
CCn1c(SCC(=O)Nc2ccc3c(c2)OCCO3)nc2c(c1=O)SC(C)C2 (stereo not drawn) | 2270 | 0.9 | 5 | 3 | 17 | / | /

More records follow:
SMILES | Bead autofluor | RN4220 kill | BJeLR viability | ugtP null kill | PrP UTR inh | Mtb hypoxia inh | Mtb hypoxia inh growth
O=C(O)COc1ccccc1-c1ccccc1 | 6179 | 4.8 | -4 | -2 | -12 | 2 | 3
Cc1ccc(-c2nnc(SCC(=O)NNC(=O)COc3cccc4ccccc34)n2C)cc1 | / | 5.8 | -8 | 3 | / | -1 | -2
Cc1ccnn1CC(=O)NN=Cc1cn[nH]c1-c1ccc(F)cc1 | / | 2.1 | / | 1 | / | -10 | -4
COc1cccc(N2C(=O)C(CC(=O)Nc3ccccc3)N(C3CCCCC3)C2=O)c1 (stereo not drawn) | 19391* | 1.5 | -6 | 3 | -9 | -1 | 3
O=C(CCCn1c(=S)[nH]c2ccccc2c1=O)NC1CCCC1 | 16938* | 6.2 | -4 | 5 | -4 | 7 | 5
O=C(NNc1c(Cl)cccc1Cl)c1cccs1 | 6776 | 1.4 | -1 | -2 | -8 | 10 | 0
CC(C)c1ccc(-c2cc(C(=O)N3N=C(C(F)F)CC3(O)C(F)F)c3ccccc3n2)cc1 (stereo not drawn) | 10436 | 8.9 | 19 | 65 | -28 | -2 | 7
Cc1ccccc1Cn1nc(C)c(NC(=O)c2cc3nc(-c4ccco4)cc(C(F)(F)F)n3n2)c1C | 3240 | -4.5 | / | -3 | 8 | -1 | 8
COCCn1c(SCC(=O)NCc2ccc3c(c2)OCO3)nnc1C(C)C | 6082 | 2.5 | -4 | 0 | 2 | 2 | 1
O=[N+]([O-])c1cccc(C(=Nc2cccc(Cl)c2)NO)c1 | 8778 | -0.7 | 6 | 2 | -25 | 4 | 6
CCC[N+](CC#Cc1ccccc1)(CCC)CC(=O)OCC | 2635 | 3.0 | -13 | 4 | -8 | 0 | 7
Cn1cccc1C=NN1CCN(Cc2ccccc2)CC1 | / | 0.0 | / | 6 | / | 4 | -3
CC(C)CNS(=O)(=O)c1ccc(CCC(=O)NCc2ccco2)cc1 | 4563 | 3.2 | -2 | -3 | -7 | 5 | 3
COc1ccc(C(=O)NCc2nnc(SCC(=O)Nc3nc4ccccc4s3)o2)cc1OC | 2390 | / | -8 | / | -5 | / | /
Cn1c(-c2sccc2OCc2ccc(Cl)cc2Cl)n[nH]c1=S | 4649 | 10 | -7 | -5 | -22 | 11 | 5
CCCCC1CC(CSC(=N)N)OC1=O (stereo not drawn) | 4502 | 5.3 | 4 | 0 | -15 | 7 | 11
CCOc1ccc(NC(=S)N2CCC(N(C)CC3CCCO3)CC2)cc1 (stereo not drawn) | 2318 | 2.9 | -8 | 2 | -8 | -2 | -1
CCN(c1ccccc1C)S(=O)(=O)c1nnc(NC(=O)c2ccco2)s1 | 6657 | 16 | 4 | 2 | -14 | 19 | 14
O=C(Nc1ccc(Br)c(Cl)c1)C1CC1 | 7005 | 4.2 | -13 | -5 | -19 | 6 | 9
O=C(NCCc1ccccc1)c1cccc(N2C(=O)C3CC=CCC3C2=O)c1 (stereo not drawn) | 4455 | 2.4 | -14 | 6 | -25 | 8 | 3
CCCn1c(SCC(=O)N2CCCC2)nc2c1c(=O)n(C)c(=O)n2C | 22149* | 0.4 | -2 | -1 | -4 | 2 | 10
COc1ccc(Br)cc1CN1CCN(C(=O)c2cccc(F)c2)CC1 | 3478 | 3.5 | -9 | 7 | -20 | 2 | -3
CC1(c2cccc(Br)c2)NC(=O)N(CC(=O)Nc2ccc(F)cc2)C1=O (stereo not drawn) | 3606 | -8.8 | -6 | 4 | -23 | 5 | 5
O=C(CC1C(=O)NCCN1C(=S)Nc1ccccc1)Nc1ccc(F)cc1 (stereo not drawn) | 10378 | 4.3 | 6 | 2 | -14 | 2 | 7
